# Source: PubChem BioAssay
# Choline anaer gr = inhibitors of anaerobic choline-dependent gram-negative bacterial growth; hit rate 0.2% among 55,000; calls only; Gram-negative bacterium anaerobic choline minimal medium, absorbance growth; active compounds read low; many inactives read as strong as hits in the columns shown; AID 1963822;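 active means growth z-score on choline under -2 at 7 or 20 h with little or no fall on glycerol, limits in tiers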;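 further: stock transfer was 300 nL into about 50 µL; the organism is E. coli; final concentration not given here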
# Choline anaer gr early = further read-out of Choline anaer gr, marked with its call; z-score; measured here: choline growth z-score, timepoint 1;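 score of optical density at 7 h as mean of two plates; lower means less growth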
# Starred values were filed as active, the others as inactive; i = inactive; + = active, no number; & = joins results of further samples. This is a subset (hit frequency here may not be typical).
Choline anaer gr | Choline anaer gr early | SMILES
i | 0.98 | CCc1ccc(NC(=O)c2ccc(Oc3ccnc(-c4cccc(C)c4)n3)cc2)cc1
i | 0.49 | CCCN(C(=O)COc1cc(=O)n(CC)c2ccccc12)c1cccc(C)c1
i | 0.31 | O=C(c1ccc(Cl)cc1)N1CCc2cc(CNS(=O)(=O)c3ccc(F)cc3)ccc21
i | 0.17 | COc1ccccc1Cn1c(=O)c2cccnc2n(Cc2ccccc2F)c1=O
i | -1.4 | COc1cc(OC)cc(N(C)S(=O)(=O)c2ccsc2-c2nc(-c3ccncc3)no2)c1
i | 0.39 | CC(=O)Nc1ccc(N2CCN(C(c3ccccc3)c3ccc(Cl)cc3)CC2)c(C(=O)O)c1 (stereo not given)
i | -0.38 | CCOC(=O)c1[nH]c(C)c(CCC(=O)N2CCCC(C(=O)N3CCN(c4ccccn4)CC3)C2)c1C (stereo not given)
i | -0.34 | CCN1CCN(C(=O)C2CCN(S(=O)(=O)c3ccc4c(c3)CCCC(=O)N4)CC2)CC1
i | 0.6 | Cc1cccc(Nc2nc(C(N)=O)c(NC(=O)c3cccc(F)c3)s2)c1C
i | -0.05 | CCOC(=O)c1ccc(NC(=O)CN2C=NS(=O)(=O)c3ccccc32)cc1
i | -0.26 | CNC(=O)c1cc2n(n1)CCCN(Cc1ccc(Cl)cc1)C2=O
i | 0.05 | CCOC(=O)c1cnc(SCC(=O)Nc2ccc(C)c(Cl)c2)nc1N
i | 1&1.1 | COc1ccc(Br)cc1S(=O)(=O)NC(=O)/C=C/c1ccccc1Cc1ccc2ccccc2c1
i | 0.51 | O=C(COc1ccc(Cl)cc1)Nc1ccc(S(=O)(=O)Nc2nccs2)cc1
i | 0.76 | N#C/C(=C\c1ccc(O)c(O)c1)C(=O)NCCc1ccccc1
i | -0.14 | COC(=O)c1ccc(CN2CCCC2c2c(C)noc2C)cc1 (stereo not given)
i | 0.68 | O=C(C1CCCN(S(=O)(=O)Cc2ccc(Cl)cc2)C1)N1CCN(C/C=C/c2ccccc2)CC1 (stereo not given)
i | -0.15 | CC1(C)Cc2nc3c(cc2CO1)c(=O)n(Cc1ccccc1)c(=O)n3CC(=O)N1CCCCC1
i | 0.54 | Cc1ccc2oc3c(c(=O)c2c1)C1(C(=O)N(C)c2ccccc21)N(CC1CCCO1)C3=O (stereo not given)
i | -0.58 | Clc1ccccc1CNc1nc(-c2nnc(-c3ccccc3)o2)nc2ccccc12
i | 0.43 | Cc1ccc(C2CC(c3cccc(NS(C)(=O)=O)c3)=NN2C(=O)CCC(=O)O)cc1 (stereo not given)
i | 0.84 | CN(C)S(=O)(=O)Nc1ccc2nc(N3CCN(c4ccc(F)cc4)CC3)cc(C(=O)O)c2c1
i | -0.79 | Cc1ccc(NC(=O)Nc2ccc(CCc3nc4ccccc4n3C)cc2)cc1C
i | -1.3 | O=C(NCc1ccccc1Cl)C1Oc2ccccc2NC1=O (stereo not given)
i | -0.02 | c1ccc(-c2nn3c(-c4ccccn4)nnc3s2)nc1
i | 0.52 | COc1cccc(C(=O)c2sc(Nc3ccccc3)nc2N)c1
i | 0.06 | Cc1csc(C2=C(O)CN(C3CCS(=O)(=O)C3)C2=N)n1 (stereo not given)
+ | -0.22* | Cc1ccc(NC(=O)CCCC2=NS(=O)(=O)c3ccccc3N2)cc1F
i | 0.62 | O=C(Nc1ccc2c(c1)OCO2)Nc1cc(NC(=O)c2ccccc2)ccc1N1CCCC1
i | -0.03 | COc1ccc(S(=O)(=O)n2cnc(C)c2)cc1Cl
i | 0.26 | CCOC(=O)C1CCN(c2nc3c(S(=O)(=O)c4ccc(C(C)C)cc4)nnn3c3ccccc23)CC1
i | -0.52 | Cc1ccc(N2CC(C(=O)N3CCN(S(=O)(=O)c4ccc5c(c4)NC(=O)CO5)CC3)CC2=O)cc1C (stereo not given)
i | -1.9 | Cc1nc(-c2csc(S(=O)(=O)N3CCCC3)c2)no1
i | 0.58 | Cc1ccc(NC(=O)Cn2nc3c(Sc4ccccc4)nc4ccccc4n3c2=O)cc1
i | 0.17 | CCCc1nc2nc(C)c(CC(=O)NC(C)C)c(C)n2n1
i | -1.8 | Cc1ccc(NC(=O)CSc2nc3ncccc3[nH]2)c(C)c1
i | 0.92 | COc1ccc(NC(=O)CSc2nccnc2Sc2ccc(C)cc2)cc1OC
i | 0.62 | CCOc1ccc(-c2nonc2NC(=O)COc2ccc(C(C)C)cc2)cc1C
i | 0.31 | COc1ccc(Cl)cc1S(=O)(=O)NCc1cc(C)n(-c2ccc(F)cc2)c1C
i | -0.34 | Fc1ccc(F)c(-c2nc(-c3ccn4cnnc4c3)no2)c1
i | 1.1 | COc1ccc(S(=O)(=O)N2CCN=C2N2CCN(c3ccccc3Cl)CC2)cc1
i | -0.19 | CCN1CCN(C(=O)c2ccc(S(=O)(=O)c3ccc(C)c(C)c3)nc2)CC1
i | 0.65 | O=C(c1cnc(N2CCOCC2)c2ccccc12)N1CCc2ccccc21
i | 0.05 | CCC(C)NC(=O)CC1COc2ccc(Cl)cc2NC1=O (stereo not given)
i | -0.32 | CCOc1ccc(NC(=O)Cn2c(=O)nc(-c3ccccc3)c3ccccc32)cc1

# Single records, as listed above.
# `CCOC(=O)C1CCN(c2nc3c(S(=O)(=O)c4ccc(C(C)C)cc4)nnn3c3ccccc23)CC1` in the list: Choline anaer gr = i; Choline anaer gr early = 0.26
# `COc1ccc(S(=O)(=O)N2CCN=C2N2CCN(c3ccccc3Cl)CC2)cc1` in the list: Choline anaer gr = i; Choline anaer gr early = 1.1
# `CCCc1nc2nc(C)c(CC(=O)NC(C)C)c(C)n2n1` in the list: Choline anaer gr = i; Choline anaer gr early = 0.17

# (listing goes on)
Choline anaer gr | Choline anaer gr early | SMILES
i | -0.49 | COC(=O)c1cnc[nH]c1=O
i | 0.33 | Cc1onc(-c2ccccc2Cl)c1C(=O)NC(c1ccccc1)c1nnc(-c2ccccc2)o1 (stereo not given)
i | 0.42 | CCCn1cnnc1C1CCCN(Cc2cn[nH]c2-c2cccs2)C1 (stereo not given)
i | -0.16 | O=C1C(=O)N(C2CCN(C(=O)c3ccccc3F)CC2)CCN1Cc1ccccc1
i | 1.1 | CC(CCC(=O)O)C1CC[C@H]2[C@@H]3CC[C@@H]4CC(O)CC[C@]4(C)[C@H]3CC[C@]12C (stereo not given in full)
i | 0.44 | CS(=O)(=O)N1CCCN(C(=O)C2CCCO2)CC1 (stereo not given)
i | -0.71 | CCOC(=O)c1ccccc1NC(=O)CSc1cc(N2CCCC2)ncn1
i | -0.12 | CCCn1c(C)ccc(-c2noc(CCCC(=O)Nc3ccc(F)cc3)n2)c1=O
i | -1.1 | CC1(C(=O)NC2CCCC2)Cn2cnc(C(=O)NCCC3=CCCCC3)c2C(=O)N1C1CC1 (stereo not given)
i | -1.2 | CN1C(=O)CSc2cnn(CC(=O)NC3CCCCC3)c(=O)c21
i | 1.6 | COc1ccc(N2CCN(C(=O)c3cc(C)nc4c(-c5ccccc5)cccc34)CC2)cc1
i | -0.1 | O=C(NCc1ccnc(N2CCSCC2)c1)Nc1ccc2c(c1)OCO2
i | 1.4 | Cc1ccc2nc(NC(=O)CSc3nc(=O)[nH]c4c3CCC4)sc2c1
i | -0.6 | CCOC(=O)CCc1c(C)nc2nc(CNc3cc(Cl)ccc3OC)[nH]n2c1=O
i | 0.32 | O=C(c1cccc(F)c1)N1CC(OCc2ccc(F)cc2Cl)C1
i | 0.54 | Cc1ccc(O)c(C2=Nc3ccccc3N=C(c3ccc(F)cc3)C2)c1
i | 0.18 | Cc1cc(C)cc(-n2nnc(C(=O)OCc3ccc(F)cc3)c2C)c1
i | -1.4 | COc1ccc(N2CCN(c3nccc4ccc(C(=O)Nc5cccc(Cl)c5)cc34)CC2)cc1
i | 0.31 | Cc1ccc(OCCCn2c(CO)nc3ccccc32)cc1
i | -0.57 | Cn1c(=O)cc(OCC(=O)N2CCC(Cc3ccccc3)CC2)c2ccccc21
i | 1.5 | O=C(Oc1ccc2cnccc2c1)c1cn(-c2cccc(Cl)c2)c(=O)c2ccccc12
i | 0.56 | CCOC(=O)C1CCN(C(=O)Cn2ccn3nc(-c4ccc5c(c4)OCO5)cc3c2=O)CC1
i | 0.26 | CC(C)NC(=O)C1CCCN(c2ccnc(-c3ccc(F)cc3)n2)C1 (stereo not given)
i | -0.16 | COC(=O)COc1cc(O)c2c(=O)cc(-c3ccccc3)oc2c1
i | 0.79 | CC1(C(=O)NC2CCCCC2)Cc2ccccc2C(=O)N1CCN1CCOCC1 (stereo not given)
i | -0.69 | COc1ccc(NC(=O)C2Oc3ccccc3NC2=O)cc1 (stereo not given)
i | 0.44 | CCOc1ccc(-n2nnc3c(N4CCN(S(C)(=O)=O)CC4)ncnc32)cc1
i | 1.1 | CC1=C(C(N)=O)C(c2ccccc2C)n2ncnc2N1 (stereo not given)
i | 0.5 | CCOC(=O)C1CCCN(c2nc3nc[nH]c(=O)c3s2)C1 (stereo not given)
i | -1.2 | CC(C)NC(=O)CCn1c(=O)c2ccccc2n2c(=O)n(Cc3cccc(Cl)c3)nc12
i | -0.16 | Cc1cc(C)c(Cn2cnc3onc(C)c3c2=O)c(C)c1
i | -0.17 | Cc1ccc(-c2noc(-c3ccccc3S(=O)(=O)NCCCN3CCCC3)n2)cc1
i | 1.1 | O=C(NC1CCCC1)C1CC(=O)N(c2ccc3c(c2)CCN3C(=O)C2CCC2)C1 (stereo not given)
i | 0.44 | CCCSc1nc2c(c(=O)[nH]1)C(c1ccc(OC)c(OC)c1)C(C(=O)OC)=C(C)N2 (stereo not given)
i | -0.73 | CCc1ccc(NC(=O)c2cnn3c2NC2=C(C(=O)CC(C)(C)C2)C3c2ccc(C)cc2)cc1 (stereo not given)
i | 0.23 | Fc1ccc(-c2cc3ncc4c(n3n2)-c2cc(F)ccc2OC4)cc1
i | 0.41 | Cc1ccc2cc(-c3noc(CCC(N)=O)n3)c(=O)[nH]c2c1
i | 2 | Cc1nn(-c2nc3ccccc3n2C)c2c1C(c1ccc(Br)cc1)CC(=O)N2 (stereo not given)
i | 0.66 | Clc1ccc2c(c1)-c1c(cnc3cc(-c4ccccc4)nn13)CO2
i | -0.14 | CCSc1ncc(Cl)c(C(=O)Nc2ccc(S(N)(=O)=O)cc2)n1
i | -0.18 | CCOC(=O)c1c(C)[nH]c2ccc3c(c12)CN1CCc2cc(OC)ccc2C1O3 (stereo not given)
i | -0.15 | Cc1nn(-c2ccccc2)c(-n2cccc2)c1CNC(=O)NCC1CCCO1 (stereo not given)
i | 0.1 | Cc1nnc(NC(=O)CSc2nnc(-c3ccccc3F)o2)s1
i | -0.67 | CC(O)C(=O)O (stereo not given)
i | 1.1 | COc1cccc(CNC(=O)C2CCN(c3nc4cccnc4s3)CC2)c1
i | -0.34 | COC(=O)C(N)Cc1ccc(Cl)cc1 (stereo not given)
i | -0.67 | Fc1ccc(-c2noc(CSc3ccc(-c4ccccc4F)nn3)n2)cc1Br
i | -0.28 | CCOc1ccc(N(Cc2nc3nc(C)cc(C)n3n2)C(=O)C(C)(C)C)cc1
i | -1.3 | Cc1nc2nc(CCc3ccccc3)[nH]n2c(=O)c1C
i | 0.83 | COc1ccc(C2C(C(=O)Nc3ccccn3)c3ccccc3C(=O)N2c2ccc(OC)cc2)cc1 (stereo not given)
i | 0 | O=C(NCCc1ccc(Cl)cc1)c1cccc(NC(=O)N2CCCCc3ccccc32)c1
i | 1.3 | Cc1ccc(NC(=O)N2CCN(c3cc(=O)n4nc(-c5ccccc5C)sc4n3)CC2)cc1F
i | 1.1 | O=C(NCc1cc(=O)n2nc(-c3ccccc3)sc2n1)Nc1ccc(Cl)cc1
i | 0.02 | Cc1ccccc1NS(=O)(=O)c1cc(-c2nc(C(C)(C)C)cs2)cs1
i | 0.29 | CN(C(=O)C1=Cc2cc(Cl)ccc2OC=C1)c1ccccc1
i | -0.4 | CC(NC(=O)c1cc2n(n1)CCCN(Cc1ccccc1)C2=O)c1ccc2c(c1)OCCO2 (stereo not given)
i | -0.72 | CCOc1ccc(N2C(=O)CN(CC(C)C)[C@H]3CS(=O)(=O)C[C@H]32)cc1
i | 0.46 | CC(C)Cn1c(=O)c2sccc2n2c(=O)n(CC(=O)NC(C)(C)C)nc12
i | 1.3 | O=C(CNS(=O)(=O)c1cc(-c2noc(C3CCC3)n2)cs1)Nc1ccc(Cl)cn1
i | 0.88 | Cc1ccc(C(=O)N2CCC(N3CCN(Cc4ccc(F)cc4)C3=O)CC2)cc1

# (listing goes on)
Choline anaer gr | Choline anaer gr early | SMILES
i | 0.1 | COc1ccc(NC(=O)Cn2c(SCc3ccc(F)cc3)nc3cccnc32)cc1OC
i | -0.31 | O=C(NC1CCCCC1)c1cccn1-c1cccnc1
i | -1.2 | COCc1nc2ccccc2n1CCOc1ccccc1
i | -0.8 | O=C(CN1C(=O)COc2ccccc2C1=O)c1ccc(Cl)cc1
i | 2.6 | COc1ccc(-c2nnc(-c3ccccc3)o2)cc1S(=O)(=O)N(C)C
i | -0.35 | COc1ccc(-c2ocnc2C(=O)NCc2ccc(Cl)cc2)cc1
i | -0.22 | CC(=O)Nc1sc2c(c1-c1nc3ccccc3s1)CCN(Cc1ccccc1)C2
i | -1.4 | COc1ccc(N2C(=O)CCS2(=O)=O)cc1S(=O)(=O)N1CCc2ccccc21
i | -1.2 | CCC(=O)N1c2ccccc2NC2=C(C(=O)CC(C)(C)C2)C1c1ccccc1 (stereo not given)
i | -0.85 | Cc1ccc2oc(SCCC(=O)Nc3cccc(N4CCCC4=O)c3)nc2n1

# Already shown: six of the compounds above.
Choline anaer gr | Choline anaer gr early | SMILES
i | 2.6 | COc1ccc(-c2nnc(-c3ccccc3)o2)cc1S(=O)(=O)N(C)C
i | -0.35 | COc1ccc(-c2ocnc2C(=O)NCc2ccc(Cl)cc2)cc1
i | -0.22 | CC(=O)Nc1sc2c(c1-c1nc3ccccc3s1)CCN(Cc1ccccc1)C2
i | -1.4 | COc1ccc(N2C(=O)CCS2(=O)=O)cc1S(=O)(=O)N1CCc2ccccc21
i | -1.2 | CCC(=O)N1c2ccccc2NC2=C(C(=O)CC(C)(C)C2)C1c1ccccc1 (stereo not given)
i | -0.85 | Cc1ccc2oc(SCCC(=O)Nc3cccc(N4CCCC4=O)c3)nc2n1
